FPR binder: human FPR ligand, with FPRL1 counter-screen; P21462; FPR-expressing cells, fluorescent ligand binding, flow cytometry; inhibition, %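 (tested at 6.7 µM)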; 0.74% of 24,000 active;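 note: 0% = buffer wells and 100% = receptor blocker peptide wells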
Target sequence (P21462 whole entry, looked up): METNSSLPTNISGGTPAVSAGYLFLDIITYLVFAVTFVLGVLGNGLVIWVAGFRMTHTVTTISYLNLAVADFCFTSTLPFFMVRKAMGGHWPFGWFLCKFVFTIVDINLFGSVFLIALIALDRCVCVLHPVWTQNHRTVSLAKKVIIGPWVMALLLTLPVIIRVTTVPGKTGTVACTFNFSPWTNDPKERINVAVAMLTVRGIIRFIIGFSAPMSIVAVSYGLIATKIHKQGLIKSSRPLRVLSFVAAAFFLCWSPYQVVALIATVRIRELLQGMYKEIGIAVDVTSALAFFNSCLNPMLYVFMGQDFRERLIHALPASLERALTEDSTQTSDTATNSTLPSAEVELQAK
VCAM-1 inhibition: suppression of endothelial VCAM-1 upregulation – cell-based, plate reader, pooled HUVEC, TNFa stimulus (AID 454); HUVEC TNFa-induced VCAM-1 surface immunofluorescence, plate reader; numbers were filed only for top-ranked candidate wells; inhibition, % at 5 µM; 0.2% of 10,000 active;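 active = compound among top-ranked inhibitors of TNF-induced VCAM-1 adhesion protein staining, with the hit upheld by image or statistical review; inactive = the rest, including hits rejected on review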;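 note: 0% = TNFa with vehicle and 100% = cells without TNFa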
VCAM-1 down imaging: suppression of endothelial VCAM-1 upregulation – imaging, high-content imaging, pooled HUVEC, TNFa stimulus (AID 456). HUVEC TNFa-induced VCAM-1 surface expression, immunofluorescence imaging; numbers were filed only for top-ranked candidate wells. 0.2% of 10,000 active. inhibition, % at 5 µM, or IC50 in µM where a hit was titrated;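 active = top tenth filtered wells with inhibition above zero that passed visual or statistical confirmation; inactive = the rest, including hits rejected on review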;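 note: 0% = stimulated vehicle wells and 100% = unstimulated cells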
FPRL1 binder: ligands of human FPRL1, also counter-screen for FPR ligands; FPRL1-expressing cells, fluorescent ligand binding inhibition, flow cytometry; inhibition, %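 (tested at 6.7 µM)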; 0.3% of 24,000 active; AID 441;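 note: 0% = buffer alone and 100% = receptor blocker peptide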
Target sequence (P25090 whole entry, looked up): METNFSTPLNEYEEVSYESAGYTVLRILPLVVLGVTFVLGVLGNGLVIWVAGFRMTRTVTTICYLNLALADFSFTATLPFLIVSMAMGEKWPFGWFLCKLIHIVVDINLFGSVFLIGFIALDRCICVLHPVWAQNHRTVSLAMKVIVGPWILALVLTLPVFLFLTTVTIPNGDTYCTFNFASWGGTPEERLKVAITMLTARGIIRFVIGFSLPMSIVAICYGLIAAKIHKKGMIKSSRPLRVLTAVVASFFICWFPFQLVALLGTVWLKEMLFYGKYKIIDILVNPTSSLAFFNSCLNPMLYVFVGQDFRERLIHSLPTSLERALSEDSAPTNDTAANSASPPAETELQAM
VCAM-1 augmentation: boosters of cytokine-driven VCAM-1 levels – imaging, high-content imaging, pooled HUVEC, TNFa stimulus (AID 457). calls only. Pooled HUVEC, TNFa-induced VCAM-1 immunofluorescence imaging; hits of this screen are not shown here. 0.2% of 10,000 active;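 active = a top-ranked rise in VCAM-1 staining upheld on image or statistical review; inactive = the rest, including candidates rejected on review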;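 note: compounds tested at 5 µM in the well; cells exposed to compound for 24 hours before fixing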
* = called active by the depositor; i = inactive; ? = inconclusive; / = not tested or not shown.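 Rule for the calls, unless noted: active = mean above 30%; inconclusive = self-fluorescent; inactive = the rest.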

The first two entries, to show the layout:
SMILES	FPR binder	VCAM-1 inhibition	VCAM-1 down imaging	FPRL1 binder	VCAM-1 augmentation
Cn1c(C(=O)N2CCCC(C(=O)N3CCN(C(=O)c4ccco4)CC3)C2)cc2sccc21 (centres undefined)	4	/	/	-2	/
Cc1ccc(NC(=O)C2(N(C(=O)Cn3nnnc3N)c3ccc(C)cc3)CCCCC2)cc1	-8	/	/	12	/

The whole of this part, previewed entries included:
SMILES	FPR binder	VCAM-1 inhibition	VCAM-1 down imaging	FPRL1 binder	VCAM-1 augmentation
Cn1c(C(=O)N2CCCC(C(=O)N3CCN(C(=O)c4ccco4)CC3)C2)cc2sccc21 (centres undefined)	4	/	/	-2	/
Cc1ccc(NC(=O)C2(N(C(=O)Cn3nnnc3N)c3ccc(C)cc3)CCCCC2)cc1	-8	/	/	12	/
CCOC(=O)N1CCN(c2cc(=O)n(-c3ccc(OC)cc3)c(=O)[nH]2)CC1	-9	/	/	-3	/
CCCCN(CC)S(=O)(=O)c1ccc(C(=O)Nc2nnc(COC)o2)cc1	2	/	/	-3	/
COc1cccc(C2CC(c3ccc(Cl)cc3)Nc3nc(N)nn32)c1 (centres undefined)	-2	/	/	5	/
c1cc2c(cc1Cn1cnnn1)OCO2	-5	i	i	-4	i
Cn1cccc1CNC(=O)Nc1ccc(Cl)c(Cl)c1	-13	/	/	8	/
C#CC1(O)CC(C)N(C)C(C)C1 (centres undefined)	-1	i	i	-2	i
CCn1c(SCC(=O)Nc2ccc3c(c2)OCO3)nnc1-c1cnccn1	22	i	i	11	i
COc1ccccc1S(=O)(=O)Cc1ccc(C(=O)NC(C)c2ccc3c(c2)OCCO3)o1 (centres undefined)	4	/	/	-1	/
CC(=O)Nc1ccc(NC(=O)Cn2cnc3c(cnn3C(C)(C)C)c2=O)cc1	7	i	i	-3	i
COC(=O)c1ccc(NC(=O)C(C)N2C(=O)c3ccccc3C2=O)cc1 (centres undefined)	2	i	i	3	i
CCSc1nnc(Cc2cc(=O)[nH]c(=O)[nH]2)n1-c1cc(C)ccc1C	10	/	/	0	/
CCCCc1c(O)nc(N2CCN(Cc3ccccc3)CC2)[nH]c1=O	-1	i	i	1	i
COC(=O)c1cc(=O)n2c(-c3ccc(OC)cc3)csc2n1	19	i	i	7	i
CCCNC(=O)Nc1ccccc1C(=O)Nc1ccc(OC)cc1	1	i	i	6	i
Cc1nc2cc(S(=O)(=O)N3CCC(C(=O)O)CC3)ccc2n1C1CCCC1	4	/	/	7	/
CC(C)Oc1ccc2nnnn2n1	10	/	/	2	/
O=C(c1ccc2c(=O)n(C3CCCC3)c(=S)[nH]c2c1)N1CCN(C2CCCCC2)CC1	5	/	/	4	/
Cc1ccccc1-c1nc(CS(=O)(=O)CC(=O)N2CCc3ccccc3C2)c(C)o1	5	/	/	-1	/
O=C(c1ccc(CNc2c(N3CCCC3)c(=O)c2=O)cc1)N1CCc2ccccc2C1	5	i	i	5	i
CC1Cn2c(nnc2-c2ccccc2O)S1 (centres undefined)	2	/	/	2	/
Cc1[nH]n2c(=O)c(C#N)c(-c3ccccc3)nc2c1-c1ccccc1	90*	/	/	-8	/
O=C(Nc1ccc(-c2nc3ncccc3o2)cc1)c1ccc(Br)o1	4	i	i	0	i
O=C(NCc1ccco1)c1cc2cc3ccc(Cl)cc3nc2o1	-2	i	i	1	i
CC1(C)OC(=O)N(c2ccccn2)C1(C)O (centres undefined)	-1	/	/	-2	/
O=C1CSC(=Nc2ccc(O)cc2)N1c1ccc(O)cc1	-1	i	i	6	i
O=C(CCn1c(=O)[nH]c2ccccc2c1=O)N1CCN(c2cccc(C(F)(F)F)c2)CC1	7	/	/	0	/
CSCSC1=C(C#N)C(c2ccc(Cl)cc2)C(C(C)=O)=C(C)N1 (centres undefined)	5	i	i	-6	i
CCOC(=O)Cn1c(=O)oc2cc(S(=O)(=O)Nc3cc(Cl)ccc3OC)ccc21	-50	/	/	?	/
O=C(Cn1cccc1C(=O)c1ccccc1)NCCN1CCCCCC1	-3	/	/	-8	/
COc1ccc(CCNC(=O)CC(NS(=O)(=O)c2ccc(NC(C)=O)cc2)C(C)C)cc1OC (centres undefined)	1	/	/	1	/
CC(O)Cn1cnc2c1c(=O)n(C)c(=O)n2C (centres undefined)	-2	i	i	-3	i
O=C(O)C1CC(=O)N(Cc2ccc(F)cc2)C1 (centres undefined)	2	/	/	2	/
Cc1c(N=C2SCC(=O)N2c2c(C)n(C)n(-c3ccccc3)c2=O)c(=O)n(-c2ccccc2)n1C	-6	i	i	4	i
Cn1c(=O)c2c(nc(CN3CCN(c4ccccc4F)CC3)n2CCN2CCOCC2)n(C)c1=O	4	i	i	-1	i
COCCNC(=O)CN1C(=O)CC(C)(C)S(=O)(=O)c2ccccc21	0	/	/	2	/
CCCCC(=O)NCCc1cc2c(C)ccc(C)c2[nH]c1=O	4	i	i	-4	i
Cn1c(Cn2c(=O)sc3ccccc32)nnc1SCC(=O)N1CCCc2ccccc21	4	/	/	4	/
COc1ccc(-c2cn3c(C)c(C(=O)Nc4cc(NC(C)=O)ccc4OC)sc3n2)cc1	4	i	i	5	i
Cc1cc(O)c(C2(C(F)(F)F)NCCNC2=O)cc1C (centres undefined)	8	i	i	2	i
O=c1cc(CO)oc(CN2CCN(c3ccccc3F)CC2)c1O	-4	/	/	6	/
CCC(=O)N1CCc2cc(S(=O)(=O)NCCC(=O)N3CC=C(c4ccccc4)CC3)ccc21	-2	/	/	-4	/
COc1ccc(CCNC(=O)CN(c2ccccc2OC)S(C)(=O)=O)cc1	2	i	i	2	i
CCCNS(=O)(=O)c1ccc(C(=O)NCC2CCCO2)cc1 (centres undefined)	10	i	i	7	i
NC(=O)C1(N2CCCCC2)CCN(C(=O)c2ccccc2)CC1	-2	/	/	2	/
CC(C)CC(NC(=O)C(CC(C)C)NC(=O)OC(C)(C)C)C(=O)O (centres undefined)	9	/	/	-5	/
CC1Cc2ccccc2N1S(=O)(=O)c1cnc[nH]1 (centres undefined)	-11	/	/	-45	/
Cc1cc2cc(CN3C(=O)c4ccccc4C3=O)ccc2[nH]1	-11	/	/	-6	/
COC(=O)c1cc(NC(=O)CCc2c(C)nc3ncnn3c2C)cc(C(=O)OC)c1	11	/	/	15	/
O=C1c2ccccc2C(O)N1Cc1ccccc1 (centres undefined)	-4	/	/	6	/
CCOc1ccc(-c2cc(CCCC(=O)NCCCOC)no2)cc1	-2	/	/	-2	/
CN(CC(=O)N1CC=C(c2ccccc2)CC1)S(=O)(=O)c1ccc2c(c1)c(=O)n(C)c(=O)n2C	13	/	/	0	/
CCOC(=O)C1CCN(C(=O)COc2ccc(S(=O)(=O)NC(C)C)cc2Cl)CC1	-15	i	i	6	i
CC1CC(C)CN(CCCNC(=O)c2ccc(CS(=O)(=O)Cc3ccccc3F)o2)C1 (centres undefined)	-2	/	/	0	/
O=C(CN(CC1CCCO1)S(=O)(=O)c1ccc(S(=O)(=O)NC2CC2)cc1)Nc1ccccc1 (centres undefined)	-10	i	i	-1	i
CC1Cc2cc(/C(O)=C3/C(=O)C(=O)N(CCN4CCOCC4)C3c3cccc(Cl)c3)ccc2O1 (centres undefined)	-4	/	/	-4	/
COc1ccc(-n2ncc3c(NCc4ccc5c(c4)OCO5)ncnc32)cc1	-4	i	i	-2	i
CCCc1nnc(NC(=O)CN2C(=O)C3C4C=CC(C4)C3C2=O)s1 (centres undefined)	-3	/	/	-1	/
CCOC(=O)c1ccc(NC(=O)CCc2c(C)nc3ncnn3c2C)cc1	-5	i	i	4	i
(more compounds)
SMILES	FPR binder	VCAM-1 inhibition	VCAM-1 down imaging	FPRL1 binder	VCAM-1 augmentation
Cc1cc(Oc2ccc(Cl)cc2)nc(-c2ccccc2O)n1	-6	i	i	-4	i
O=C(NCCC1=CCCCC1)C1CCN(S(=O)(=O)c2cccc3nonc23)CC1	-1	/	/	2	/
Cc1nc2sc(C(c3cccc(F)c3)N3CCCCC3)c(O)n2n1 (centres undefined)	15	i	i	2	i
CCn1cnc2cc(NCc3cccc(OC)c3O)ccc21	2	i	i	-6	i
Cc1ccc(C(=O)NCc2ccc3c(c2)OCO3)cc1S(=O)(=O)N1CCCCC1	-3	i	i	4	i
CCCCCNC(=O)c1ccc2c(=O)n(CC3CCCO3)c(=O)[nH]c2c1 (centres undefined)	3	/	/	6	/
Cc1noc(C)c1S(=O)(=O)N1CCN(C(c2ccccc2)c2ccc(Cl)cc2)CC1 (centres undefined)	1	/	/	5	/
O=C(NC1CCCC1)c1csc2c1CCCC2	-4	/	/	-4	/
O=C(NCC(c1cccnc1)N1CCN(c2ccc(F)cc2)CC1)OCc1ccccc1 (centres undefined)	5	i	i	0	i
CCC(=O)Nc1c2c(nn1-c1cccc(Cl)c1)CSC2	1	/	/	-2	/
O=c1c2ccccc2nc(SCc2cn3ccsc3n2)n1-c1ccc(F)cc1	7	i	i	7	i
Cc1cc(C)c(C#N)c(SCC(=O)Nc2ccc(S(=O)(=O)Nc3onc(C)c3C)cc2)n1	8	i	i	0	i
CCOc1ccc(NC(=O)CCN2CCN(S(=O)(=O)c3cc(Cl)ccc3OC)CC2)cc1	-3	/	/	-2	/
O=C1c2ccccc2NC(c2ccc3c(c2)OCO3)N1O (centres undefined)	7	/	/	5	/
CCOC(=O)N1CCN(C(=O)c2ccc3nc(N4CCC(C)CC4)sc3c2)CC1	0	/	/	4	/
Cc1nc2nc(C)c(CCC(=O)N3CCOCC3)c(C)n2n1	0	/	/	-2	/
CC1(C)NC(=O)N(CCCOc2ccc(Br)cc2Cl)C1=O	9	i	i	-11	i
Cc1ccc(S(=O)(=O)c2nc(-c3ccc(F)cc3)oc2SCC(=O)NCC2CCCO2)cc1 (centres undefined)	11	/	/	6	/
CCOC(=O)C(C)Sc1nnc(CNC(=O)c2ccc(OC)cc2)n1C1CCCCC1 (centres undefined)	1	/	/	-4	/
Cc1cc(NC(c2cccnc2)c2c(C)[nH]c3ccccc23)no1 (centres undefined)	0	i	i	-1	i
CC(C)(CSc1nncn1N)NS(=O)(=O)c1ccc(Cl)cc1	-4	i	i	2	i
O=C(NCc1ccc2c(c1)OCO2)c1ccc(CS(=O)(=O)c2cccc(C(F)(F)F)c2)o1	3	/	/	2	/
O=C(c1cc(-c2ccc(O)cc2)on1)N1CCc2ccccc2C1	1	/	/	-8	/
Cc1noc(C)c1S(=O)(=O)N(CC(=O)Nc1ccc2c(c1)OCO2)c1ccc(C(C)C)cc1	2	/	/	-5	/
CC1CC(C)CN(C(=O)C2CCCN(S(=O)(=O)c3cccc4nonc34)C2)C1 (centres undefined)	-2	/	/	4	/
CCCOc1ccc(S(=O)(=O)NCCCN2CCOCC2)c2ccccc12	-2	i	i	-3	i
COc1ccc(CCNC(=O)CN(c2ccc(C)cc2)S(=O)(=O)c2c(C)noc2C)cc1OC	2	/	/	-8	/
CCN1CCN(C(=O)C2c3cc(OC)c(OC)cc3C(=O)N(C)C2c2ccc(SC)cc2)CC1 (centres undefined)	3	/	/	10	/
CCOC(=O)N1CCN(C(=O)c2oc(=O)c3ccccc3c2-c2ccc(C)cc2)CC1	-1	/	/	4	/
O=C(CSc1ccc(Cl)cc1)OCc1nnc(-c2ccccc2)o1	2	i	i	5	i
CCN1CCN(c2c(Cl)cccc2NC(=O)c2ccc3c(c2)OCCO3)CC1	3	i	i	-9	i
CCC1Sc2ccccc2N(CC(=O)NCc2ccc3c(c2)OCO3)C1=O (centres undefined)	-4	/	/	-4	/
Cc1ccc(-c2nn(CC(=O)NCc3ccco3)c(=O)c3ccccc23)cc1	1	/	/	4	/
Cc1ccc(OCc2nnc(SCC(=O)N3CCOCC3)n2C)cc1	-3	i	i	-2	i
Cc1ccc(-n2ncc3c(=O)n(-c4ccc(C)c(C)c4)c(C)nc32)cc1	5	/	/	-3	/
Nc1sccc1C(=O)c1ccccc1	-3	i	i	12	i
O=C(CCn1c(=O)sc2ccccc21)Nc1cccnc1	3	i	i	-5	i
CCCn1c(C(C)NC(=O)c2ccccc2)nc2ccccc21 (centres undefined)	-2	/	/	-3	/
O=c1c2oc3ccccc3c2ncn1Cc1ccccc1F	3	/	/	5	/
Cc1cc(C)n(C(=O)CCNC(=O)c2ccccc2Br)n1	2	/	/	2	/
CCN(CC)C(=O)C1CCC(CNS(=O)(=O)c2cccc3cccnc23)CC1 (centres undefined)	-4	i	i	1	i

Complete entries as entered above. Screens in order: FPR binder, VCAM-1 inhibition, VCAM-1 down imaging, FPRL1 binder, VCAM-1 augmentation
Cc1ccc(S(=O)(=O)c2nc(-c3ccc(F)cc3)oc2SCC(=O)NCC2CCCO2)cc1 (centres undefined) reads 11, /, /, 6, /
CCOC(=O)Cn1c(=O)oc2cc(S(=O)(=O)Nc3cc(Cl)ccc3OC)ccc21 reads -50, /, /, ?, /
Cc1ccc(-c2nn(CC(=O)NCc3ccco3)c(=O)c3ccccc23)cc1 reads 1, /, /, 4, /
CCC(=O)N1CCc2cc(S(=O)(=O)NCCC(=O)N3CC=C(c4ccccc4)CC3)ccc21 reads -2, /, /, -4, /

Screening data: PubChem BioAssay, several laboratories

This is a subset; count on the stated rates, not on these rows.
